Screening data as filed in PubChem.
AID504770: E. coli YBA685 growth inhibition, screen for V. cholerae RctB inhibitors; z-score (no concentration beside the values); 130,000 compounds, 0.27% hits; E. coli YBA685 rctB-dependent plasmid, OD600 growth, 3 h; hits give low values;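 active = z-score under -2 on both plates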;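 also: wells of about 30 µL received 100 nL stock; score is relative to mean and SD of the test wells; the first replicate is given; strong numbers were not always called active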
CapD inh: inhibitors of Bacillus anthracis CapD enzyme | purified CapD enzyme, fluorescence intensity read-out; hits give low values; some hits fall short of the stated cut | z-score (no concentration beside the values) | 140,000 compounds, 0.23% hits | AID 492967;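 active = z-score under -4 in either of two replicates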;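 also: stock transfer was 100 nL into about 40 µL; score is relative to mean and spread of the plate; one replicate is shown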
Starred values were filed as active, the others as inactive; . = no result given.

Values run as follows: AID504770 | CapD inh
CC1=C(C)CC(C(=O)NCc2ccccn2)C(C(=O)O)C1 (configuration not stated)
→ 1.9 | -0.085
CCC(C(=O)NCc1ccco1)n1c(SCc2ccc(F)cc2)nc2cccnc21 (configuration not stated)
→ -0.1 | 79
O=C(Nc1ccccc1)OC1C2CCCC1C(N1CCCCC1)CC2 (configuration not stated)
→ -0.6 | 0.17
CCOC(=O)NC(=O)c1cn(Cc2cccs2)c(=O)[nH]c1=O
→ . | 0
COc1ccccc1NC(=O)N1C(C(=O)NCc2ccc(F)cc2)CSC1c1ccccc1C (configuration not stated)
→ -0.2 | -0.065
C=CCn1c(SCc2nnc(SCC(=O)c3ccc(Cl)cc3)o2)nnc1-c1ccccc1
→ -0.75 | -0.755
COc1ccc(N2C(=O)/C(=C/c3cccn3-c3ccc(Cl)cc3)C(=O)NC2=S)cc1
→ . | 0.215
CC12c3ccccc3C(c3ccccc31)C1C(=O)N(c3ccc(C(=O)O)cc3)C(=O)C12 (configuration not stated)
→ . | 0.05
CS(=O)(=O)c1ccc(CC(=O)NCc2cccc(C(F)(F)F)c2)cc1
→ . | -0.205
Cc1c(/C=C2/N=C(c3ccccc3)OC2=O)cc(C#N)n1C
→ 0.1 | .
O=C(COC(=O)c1cc2ccccc2cc1O)c1ccc(OCc2ccccc2)cc1
→ 0.25 | -0.21
C=CCOc1c(-c2nc(OC)cc(OC)n2)sc2ccccc12
→ . | 0.06
Cc1ccc(N(C)S(=O)(=O)c2cc3[nH]c(=O)c(=O)[nH]c3cc2C)cc1
→ -0.55 | 2.15
O=C1CC(c2ccc(Cl)cc2)n2ncnc2N1 (configuration not stated)
→ -0.55 | 8.46
COc1ccc(CCNC(=O)CCCn2ncn3c(cc4occc43)c2=O)c(OC)c1
→ -0.9 | -0.135
c1ccc(CN2CCN(CCN3CCCCC3)CC2)cc1
→ -0.5 | .
CC1CCCCN1C(=O)c1cc2ccccc2oc1=O (configuration not stated)
→ 0.5 | .
CCOC(=O)C1=C(C)N=c2s/c(=C\c3ccccc3OC(C)=O)c(=O)n2C1c1ccc(OC(C)=O)cc1 (configuration not stated)
→ . | -1.15
CCc1cc2c(=O)c(-c3ccc4ccccc4n3)coc2cc1OC
→ -0.9 | 0.74
O=C(N/N=C/c1ccc(F)c(Br)c1)c1ccc(OC(F)(F)F)cc1
→ . | 2.28
CC1CCCC(C)N1C(=S)NCCCN1CCOCC1 (configuration not stated)
→ -0.65 | -0.3
O=C(NC1(O)C(=O)c2ccccc2C1=O)c1ccc(C(F)(F)F)cc1
→ -0.35 | 0.64
Cc1ccc(NC(=O)C2Cc3ccccc3C(=O)O2)cc1C (configuration not stated)
→ -0.55 | 0.325
COc1cc(NC(=O)COCc2cc(-c3ccc(F)cc3)on2)c(OC)cc1Cl
→ 0.2 | 0.21
CC12COC3(C(=O)Nc4ccc(F)cc4)CC1CCC32C (configuration not stated)
→ . | -0.05
Cn1c(=O)c2c(nc(NN=C3CCCCC3)n2C)n(C)c1=O
→ 0.55 | .
O=C(OCc1ccc(F)c(C(F)(F)F)c1)N1CCN(Cc2ccc(Oc3ccccc3)cc2)CC1
→ . | 0.285
COC(=O)c1sccc1NS(C)(=O)=O
→ . | 0.205
O=C(Nc1cccc(C(F)(F)F)c1)c1ccccn1
→ -0.35 | 0.02
CN(C)c1ccc(C2CC(c3cccs3)Nc3ncnn32)cc1 (configuration not stated)
→ . | -0.375
COc1ccccc1C1CCN(C(=O)c2ccccc2CC(=O)O)CC1
→ . | 0.705
Cc1cc(C(=O)N2CCN(C(c3ccccc3)c3ccccc3)CC2)nn1C
→ 0.1 | 0.41
O=S(=O)(Nc1ccc(O)cc1)c1ccc2oc3ccc(S(=O)(=O)Nc4ccc(O)cc4)cc3c2c1
→ 1.4 | -0.525
O=C(OCc1cc(=O)n2cc(Br)ccc2n1)C1COc2ccccc2O1 (configuration not stated)
→ 0.35 | .
O=C(/C=C/c1ccco1)NNC(=O)OCC1CCCC1
→ . | 0.28
COc1ccc2ccccc2c1CN1CCN(C(=O)OCc2ccc([N+](=O)[O-])c(C)c2)CC1
→ . | -0.295
CCN(Cc1nc2cc(OC)c(OC)cc2c(=O)[nH]1)C(=O)c1ccc(S(=O)(=O)N(C)C)cc1
→ -0.15 | .
O=c1nc2n(-c3cccc(F)c3)c3ccccc3cc-2c(=O)[nH]1
→ . | -0.16
Cc1ccccc1CS(=O)(=O)c1cnc2ccccc2n1
→ -0.9 | -0.17
COC(=O)c1ccc(COc2ccc(F)cc2)cc1
→ -1.8 | -0.02
CCCSc1ncccc1C(N)=O
→ . | 0.63
Cc1ccc(S(=O)(=O)NNC(=O)CCc2nc(-c3ccc(Cl)cc3)no2)cc1
→ . | 0.42
CCC(=O)NCCSc1ncc(-c2ccccc2)[nH]1
→ 1.25 | .
CCCn1c(SCC(=O)N2CCC(C)Sc3ccccc32)n[nH]c1=O (configuration not stated)
→ -0.4 | .
Cc1ccc(NC(=O)CC2Oc3ccccc3NC2=O)cc1 (configuration not stated)
→ -0.4 | 0.145
CCOCCCn1c(=S)[nH]c2cc(C(=O)NCCCN3CCN(c4cccc(Cl)c4)CC3)ccc2c1=O
→ . | -0.13
CC(C)(C)N1CC(c2nc3ccccc3[nH]2)CC1=O (configuration not stated)
→ 0.25 | .
S=c1nc(-c2cccs2)[nH]n1CN1CCCC1
→ 1.35 | .
CC(=O)N1CCC(N(C(=O)CSCCNC(=O)c2cc(Cl)nc(Cl)c2)C2CC2)CC1
→ . | -0.215
Cc1cc(-c2ccc(C)c(S(=O)(=O)N(C)C3CCCCC3)c2)on1
→ 1.4 | -1.06
CCN1C(=O)NC2NC(=O)NC21 (configuration not stated)
→ . | -0.02
O=C(N/C=C/n1cnc2cc(C(F)(F)F)ccc21)c1ccco1
→ -0.65 | -0.115
OC(CNCc1cccs1)c1ccccc1 (configuration not stated)
→ -0.65 | -0.465
CCOc1cc(-c2nc3sc4c(c3c(=O)[nH]2)CCCC4)cc(Cl)c1OCCOc1ccccc1OC
→ . | 0.615
O=C1/C(=C/c2ccc([N+](=O)[O-])cc2)C=C(c2ccccc2)N1c1ccccc1Cl
→ . | -0.72
CC(Oc1ccc(/C=C2\C(=O)NC(=S)N(c3cccc(Br)c3)C2=O)cc1)C(=O)O (configuration not stated)
→ . | -0.605
Oc1c(Cl)cc(Cl)cc1C=Nc1ccc2n[nH]nc2c1
→ -1.1 | 0.8
COc1cc(CN(Cc2ccccc2)C(=S)Nc2c(C)cccc2C)cc(OC)c1OC
→ . | -0.435
O=C(NCc1ccco1)c1cc(F)cc2c1OCOC2
→ -0.7 | 0.62
COc1cc(C2CC(=O)Nc3c2ccc2ccccc32)cc(OC)c1O (configuration not stated)
→ . | 0.53

Later entries:
Values run as follows: AID504770 | CapD inh
Cn1c(=O)c2c(nc(N3CCNCC3)n2C)n(C)c1=O
→ -1.95 | -0.01
COc1cc(OC)nc(N2CCN(C(=O)c3ccccc3NC(=O)NS(=O)(=O)c3ccc(C)cc3)CC2)n1
→ . | 0.465
Cc1ccc(C(=O)CSc2nnc3[nH]c(=O)c(C)nn23)cc1
→ 0.7 | .
CC(=O)Nc1ccc(NC(=O)C(C)OC(=O)c2c(F)cccc2F)cc1 (configuration not stated)
→ 1.6 | -0.87
COc1ccc(CCNC(=O)Nc2ccccc2C)cc1OC
→ 1.95 | 0.055
CC(=O)N1CCc2ccccc2C1CN=CC1=C(O)CC(c2ccco2)CC1=O (configuration not stated)
→ 0.4 | 0.475
C/C(=N\OCC(=O)Nn1c(=O)[nH]c2ccccc2c1=O)c1ccccc1
→ -0.15 | 5.38
COc1ccc(C(=O)Nn2cnnc2)cc1
→ -0.05 | 0.815
Nc1ccccc1-c1nnn(CC(=O)NC2CCCC2)n1
→ -0.3 | 0.075
CN(C)S(=O)(=O)Cc1ccccc1Cl
→ -0.95 | -0.215
N#Cc1c(Cl)cccc1Oc1ccc(S(=O)(=O)N2CCC(O)CC2)cc1
→ -0.45 | -0.21
NC(=O)CCNCc1ccccc1
→ -0.45 | 4.07
O=C1NC(=O)N(c2cccc(Cl)c2)C(=O)/C1=C/c1cc(Br)c(N2CCOCC2)o1
→ . | 0.385
Nc1ccccc1Sc1cc(Sc2ccccc2N)c([N+](=O)[O-])cc1Cl
→ . | -0.715
Cc1cc(C(=O)COC(=O)c2ccc(NC(=O)CC#N)cc2)c(C)n1-c1ccc2c(c1)OCCO2
→ -0.05 | .
O=S(=O)(c1ccccc1)N1CC=C(c2ccccc2)CC1
→ -0.5 | 0.305
COc1ccc(-c2c(C#N)c(N)nc3sc(C(=O)Nc4ccc(F)cc4)c(N)c23)cc1OC
→ . | -1.14
Cc1sc(NC(=O)CN2CCc3ccccc32)c(C#N)c1C
→ -0.4 | -0.095
CNC(=O)Cc1sc2ccc(Cl)cc2c1C
→ 0.05 | 0.075
O=C1CC(c2ccc3c(c2)OCO3)c2c(c3ccccc3n(-c3ccccc3)c2=O)O1 (configuration not stated)
→ 1.55 | .

A different layout for 4 compounds above:
> CCOc1cc(-c2nc3sc4c(c3c(=O)[nH]2)CCCC4)cc(Cl)c1OCCOc1ccccc1OC
  AID504770: . | CapD inh: 0.615
> O=C1/C(=C/c2ccc([N+](=O)[O-])cc2)C=C(c2ccccc2)N1c1ccccc1Cl
  AID504770: . | CapD inh: -0.72
> CC(Oc1ccc(/C=C2\C(=O)NC(=S)N(c3cccc(Br)c3)C2=O)cc1)C(=O)O (configuration not stated)
  AID504770: . | CapD inh: -0.605
> Oc1c(Cl)cc(Cl)cc1C=Nc1ccc2n[nH]nc2c1
  AID504770: -1.1 | CapD inh: 0.8

Another view of 4 compounds above.
CC12COC3(C(=O)Nc4ccc(F)cc4)CC1CCC32C (configuration not stated)
- AID504770 = .
- CapD inh = -0.05
Cn1c(=O)c2c(nc(NN=C3CCCCC3)n2C)n(C)c1=O
- AID504770 = 0.55
- CapD inh = .
O=C(OCc1ccc(F)c(C(F)(F)F)c1)N1CCN(Cc2ccc(Oc3ccccc3)cc2)CC1
- AID504770 = .
- CapD inh = 0.285
COC(=O)c1sccc1NS(C)(=O)=O
- AID504770 = .
- CapD inh = 0.205

More structures follow.
Values run as follows: AID504770 | CapD inh
O=c1cc[nH]c2ccc(OC(F)(F)F)cc12
→ -0.7 | -0.245
Cc1cc(C)cc(N=C2NC(=O)/C(=C/c3ccc([N+](=O)[O-])c(O)c3)S2)c1
→ . | -0.26
NS(=O)(=O)c1ccc(C(=O)Nc2cccc(-c3ccc4nncn4n3)c2)cc1
→ -1.15 | .
Cc1nc2sc(C(c3ccc(Cl)c(Cl)c3)N3CCCC3)c(O)n2n1 (configuration not stated)
→ -0.85 | .
CCN(Cc1ccc2c(c1)OCCO2)C(=O)c1ccccc1C(=O)N(C)C1CCCCC1
→ 0.15 | .
COc1ccc(N=C2SC(C(N)=O)CC(=O)N2Cc2ccccc2)cc1 (configuration not stated)
→ 0.15 | .
Cc1cccc(NC(=O)c2ccc(F)c(S(=O)(=O)N3CCCc4ccccc43)c2)c1
→ . | -0.31
CC(C)(C)C(=O)N1c2ccccc2CCc2ccccc21
→ 0.85 | .
COc1ccc(N(C)C(=O)C2COc3ccccc3O2)cc1 (configuration not stated)
→ -0.15 | 0.22
O=C(Nc1ccc(C(F)(F)F)cc1)C1=NCCN1
→ -0.15 | .
COCCN(CCOC)S(=O)(=O)c1ccc(C(=O)Nc2nc3ccc4sc(C)nc4c3s2)cc1
→ . | 14.5
Cc1cc(=O)oc2cc(NC(=O)CC3(CC(=O)O)CCCC3)ccc12
→ -1.1 | 32.5
C=CCOC(=O)C1=C(C)NC(C)=C(C(=O)OCC=C)C1c1cn(-c2ccccc2)nc1-c1cccc([N+](=O)[O-])c1
→ . | 0.085
O=C(Cn1ncc2c(=O)oc3ccccc3c21)NCCCN1CCCCCC1
→ 2.65 | -0.395
Cc1ccc(-n2nc(C)c3c(C(=O)NC4CCCC4)cc(C)nc32)cc1
→ 0.7 | 0.875
Cc1cccc(NC(=O)c2cc3c(=O)n4ccccc4nc3s2)c1
→ 0.9 | -0.75
CC(C)c1ccc(C2CC(=O)NC(SCC(=O)Nc3ccc(Cl)cc3)=C2C#N)cc1 (configuration not stated)
→ . | -0.455
Cc1cc2c(N=NC(=O)C3CC34CCC4)c(O)[nH]c2cc1Br (configuration not stated)
→ -0.35 | .
Cc1ccc(S(=O)(=O)N2CC(=O)CCc3ccccc32)cc1
→ 0.15 | 0.165
O=S(=O)(Cc1ccc(C(F)(F)F)cc1)c1c[nH]c2ccccc12
→ -0.35 | 0.07
CCOc1cc(C(=O)Nc2c3c(nn2-c2ccc(C)cc2)CS(=O)(=O)C3)cc(OCC)c1OCC
→ . | 0.07
O=C(COC(=O)c1ccco1)Nc1ccc(Br)cc1
→ 0.35 | .
CCCCc1nc2sc3c(Cl)ncnc3c2c2c1COC(C)(C)C2
→ -0.55 | 0.265
CCc1ccc(C2Nc3ccccc3NC3=C2C(=O)CC(C)(C)C3)cc1 (configuration not stated)
→ 0.95 | -2.68
O=C(O)CC(Sc1ncnc2sc3c(c12)CCCC3)C(=O)O (configuration not stated)
→ 0.75 | .
Cc1ccc2nc(Cl)c(/C=N/NC(=O)c3cccnc3)c(=O)n2c1
→ -2.25 | .
Cc1cc(SCc2c(Cl)cccc2Cl)c(Cl)cc1Cl
→ . | 0.31
Cc1ccc(Cn2c(C)c3cnn(CC(=O)NCC4CCCO4)c(=O)c3c2C)cc1 (configuration not stated)
→ -0.3 | 0.44
O=C(O)C1CC1C(=O)N1CCN(c2nc(-c3ccccc3)ns2)CC1 (configuration not stated)
→ . | 0.585
COc1ccc(Cl)cc1S(=O)(=O)N1CCC(c2nnc(-c3ccc(C)cc3)o2)CC1
→ -0.8 | -0.905
CC1(C)CC(C)(O)P(C)(=O)O1 (configuration not stated)
→ 0.75 | .
COc1ccc(C(c2c(C)[nH]c3ccccc23)N2CCOCC2)cc1 (configuration not stated)
→ -0.2 | -0.71
O=C(/C=C/c1cccc(Cl)c1)Oc1cccc(NC2=NS(=O)(=O)c3ccccc32)c1
→ . | -0.595

These rows are one share of the data; rates above refer to the full screens.
